Screening results as filed in PubChem.
AID504770: growth inhibition of E. coli YBA685, primary screen, V. cholerae RctB inhibitors. E. coli YBA685 rctB-dependent plasmid, OD600 growth, 3 h; stronger effect = lower value. z-score (no concentration beside the values). 130,000 compounds, 0.27% hits;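 active = z-score under -2 on both plates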;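 also: wells of about 30 µL received 100 nL stock; score is relative to mean and SD of the test wells; the first replicate is given; strong numbers were not always called active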
Ba CapD inh: Bacillus anthracis CapD inhibitors, primary screen, biochemical, fluorescence intensity; z-score (test concentration not listed); 140,000 compounds, 0.23% hits; purified CapD enzyme, fluorescence intensity read-out; stronger effect = lower value; some hits fall short of the stated cut; AID 492967, 2010; CapD gamma-glutamyltranspeptidase (Bacillus anthracis Ames Ancestor);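 active = z-score under -4 in either of two replicates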;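 also: stock transfer was 100 nL into about 40 µL; score is relative to mean and spread of the plate; one replicate is shown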
* hit, by the source's call; . = not tested or not shown; & = joins results of further samples.

SMILES | AID504770 | Ba CapD inh
CCOC(=O)C1C(=S)NC(N)=C(C#N)C12CCCCC2 (stereo not drawn) | 0.05 | -2.7
O=S(=O)(/N=C(/Nc1cc(N2CCOCC2)ncn1)c1ccc(F)cc1)c1ccccc1 | -0.85 | 13
O=S(=O)(c1ccc(Br)s1)N1CCN(c2ccccc2F)CC1 | . | -0.8
O=C(OCc1ccc2nonc2c1)c1cc(-c2ccccc2)nc2ccccc12 | 0 | 0.64
COc1ccccc1CNC(=O)CNC1CCCCC1 | 1.5 | .
CCOC(=O)C1=C(c2ccccc2)N=C2SCC(=O)N2C1c1ccc(OC)cc1 (stereo not drawn) | . | -0.57
O=S(=O)(NC1CCCC1)c1ccc(Br)cc1 | 0.05 | .
CN(C)S(=O)(=O)c1ccc(-c2n[nH]c(=S)n2-c2ccc(Cl)cc2)cc1 | 1.4 | .
CC(=O)Nc1ccc(S(=O)(=O)NC2=NCN(C3CCN(Cc4ccccc4)CC3)CN2)cc1 | 0.45 | 0.06
Cc1ccc(CCNC(=O)c2cccn3c(=O)c4c5c(sc4nc23)CCCC5)cc1 | 0.55 | 0.005
O=C(CC(NC1CCCC1)C(=O)O)Nc1ccc(Oc2ccccc2)cc1 (stereo not drawn) | 2.3 | .
Cc1ccc(Cn2cccc(C(=O)Nc3ccon3)c2=O)cc1 | -1.6 | .
CCc1ccc(C(=O)C(C)Sc2nnc(-c3ccccc3)o2)cc1 (stereo not drawn) | -0.25 | .
CC(C)(C)C(=O)Nc1ccc(-c2nc3ccccc3s2)c(O)c1 | -0.4 | 21
Cc1noc(/C=C/N(C)C)c1S(=O)(=O)Nc1cccc(Cl)c1 | 0.15 | -1.4
Cc1ccc2cc(CCNC(=O)C3CC3)c(=O)[nH]c2c1 | 0.05 | 3.2
O=C(NNC(=O)c1ccccc1-n1cccc1)OCCN1CCNC1=S | . | -0.49
C=CCNc1c(Cl)cc(Cl)cc1C(=O)O | 0.35 | 0.09
OC(COCc1ccccc1)C[N+]1(Cc2ccccc2)CCOCC1 (stereo not drawn) | -0.05 | 0.21
COc1ccccc1N1CCN(/N=C/c2sccc2C)CC1 | -0.7 | -1
CCOc1ccc(NC(=O)CNS(=O)(=O)c2ccc3c(c2)C(C)(C)C(=O)N3C)cc1 | -0.45 | -0.45
Cc1cc(-c2onc(C)c2C(=O)NNC(=O)c2cccc(S(=O)(=O)O)c2)no1 | . | -0.69
O=C1Nc2ccccc2/C1=N\N1C(=O)/C(=C/c2ccccc2)N=C1c1ccccc1 | -1.1 | -2
CCn1c(Cn2nnc(-c3ccccc3)n2)nc2cc(S(=O)(=O)N(C)C)ccc21 | -0.4 | .
Cc1sc(NC(=O)c2ccccc2F)c(C(=O)c2ccc(Cl)cc2)c1C | 4.6 | -0.7
CSc1cc(C(F)(F)F)cc(SC)c1SC | . | -0.44
O=C(COC(=O)/C=C/c1ccc(F)cc1)Nc1ncc(C(F)(F)F)cc1Cl | 0.35 | 2.6
COc1ccccc1Nc1ncccc1C(=O)Nc1ccnn1C(C)C | -0.95 | .
O=C(CSc1nc2sc3c(c2c(=O)[nH]1)CCCC3)N1CCOCC1 | -0.6 | .
CCOC(=O)c1c(CN2CCCCC2)oc2ccc(OC)cc12 | -0.5 | 0.35

Single records, as listed above. Order of screens: AID504770, Ba CapD inh
COc1ccccc1N1CCN(/N=C/c2sccc2C)CC1 as listed: -0.7, -1
CSc1cc(C(F)(F)F)cc(SC)c1SC as listed: ., -0.44

Next section
SMILES | AID504770 | Ba CapD inh
Cc1ccccc1NC(=O)COC(=O)c1cccc(S(=O)(=O)N2CCCC2)c1 | 0.15 | .
O=c1o[nH]c(-c2ccccc2F)c1C=Nc1ccc(Cl)cn1 | 0 | 0.085
CN1C(=O)C2N=NN(c3ccccc3)C2C1=O (stereo not drawn) | -0.85 | -1
Cc1ccc(NC(=S)N2CCCN(c3ncc(C(F)(F)F)cc3Cl)CC2)c(C)c1 | -0.65 | 0.25
CC(C)NC(=O)CSc1c2c(nc3ccccc13)CCCC2 | -0.95 | -0.27
O=C(CSc1ncc(S(=O)(=O)c2ccccc2)c(=O)[nH]1)Nc1ccccc1Cl | 2 | -0.44
CCOC(=O)c1c(NC(=O)CN2C(=O)c3cccc4cccc(c34)C2=O)sc2c1CCC2 | . | 0.46
O=c1[nH]c2ccc(Oc3ccc4[nH]c(=O)c(=O)[nH]c4c3)cc2[nH]c1=O | 0.15&-0.55 | -1.8&-0.61
COC(=O)c1ccccc1NC(=O)Cn1cc(S(=O)(=O)N2CCC(C)CC2)c2ccccc2c1=O | 0.85 | 1.2
CC(=O)c1nnc2cc(C)nn2c1C | . | -1.2
O=C(c1ccc2c(c1)OCO2)N1CCNc2ccccc2C1 | 0.3 | -0.61
Cc1csc2sc(C(=O)c3ccc(Cl)cc3)c(C)c12 | 1.1 | -0.015
O=C(NCCc1ccccc1F)C1CC(=O)N(c2ccccc2)C1 (stereo not drawn) | -0.6 | -0.23
COc1ccc(OC)c(NC(=O)CSc2nc3n[nH]c(C)c3c(=N)n2-c2ccc(Cl)c(C)c2)c1 | . | 0.21
O=C(CSc1n[nH]c(-c2ccco2)n1)N1CCCCC1 | . | 0.16

Brought forward from above: six entries, then new ones.
SMILES | AID504770 | Ba CapD inh
CC(=O)c1nnc2cc(C)nn2c1C | . | -1.2
O=C(c1ccc2c(c1)OCO2)N1CCNc2ccccc2C1 | 0.3 | -0.61
Cc1csc2sc(C(=O)c3ccc(Cl)cc3)c(C)c12 | 1.1 | -0.015
O=C(NCCc1ccccc1F)C1CC(=O)N(c2ccccc2)C1 (stereo not drawn) | -0.6 | -0.23
COc1ccc(OC)c(NC(=O)CSc2nc3n[nH]c(C)c3c(=N)n2-c2ccc(Cl)c(C)c2)c1 | . | 0.21
O=C(CSc1n[nH]c(-c2ccco2)n1)N1CCCCC1 | . | 0.16
CC(C(=O)NCCCN1CCN(C2CCCCC2)CC1)n1ncn2cccc2c1=O (stereo not drawn) | -0.25 | -0.52
Cc1cc(NC(=O)CSCC(=O)O)no1 | 0.55 | 0.29
Nc1nc(-c2ccccc2)c(N=Nc2ccc3c(c2)OCO3)s1 | 1.4 | .
NS(=O)(=O)c1ccc(Cl)cc1F | -0.3 | .
O=C(NCCCN1CCCC1)C1CCN(c2nc3ccccc3n3cccc23)CC1 | 1.6 | 4.9
COC(=O)c1sc(-c2ccc(Cl)cc2)cc1NC(=O)/C=C/C(=O)O | 0.05 | 0.71
O=C(O)c1ccccc1C(=O)N1CCc2c([nH]c3ccccc23)C1C(F)(F)F (stereo not drawn) | -0.9 | 0.38
O=C(COc1ccc(Br)cc1)OCc1nnc(-c2ccccc2)o1 | -0.3 | .
Cc1nc(N2CCN(C)CC2)c2c(C)c(C(=O)Nc3ccc(Br)cc3C)sc2n1 | . | -0.17
COc1ccc(COC(=O)N/C=C/c2ccccc2)cc1 | 0.9 | -0.41
COc1ccc(C2CC(c3nc4ccccc4[nH]3)=NN2C(=O)CCCl)cc1 (stereo not drawn) | . | 3.1
O=S1(=O)NC(=NC2CC2)c2ccccc21 | 0.65 | 0.42
COC(=O)[n+]1ccc(N2CCOCC2)cc1 | 0.05 | .
OCCNc1ncnc2oc(-c3ccccc3)c(-c3ccccc3)c12 | -0.4 | 77
COC1=C(N2CCOCC2)C(=O)c2ccccc2C1=O | 0.75 | -0.31
CCOC(=O)c1ccc(Cn2nnc3ccccc3c2=O)cc1 | 2 | .
O=C(N1CCCCC1)N1CCN(C(=O)N(c2ccccc2)c2ccccc2)CC1 | -0.05 | .
O=S(=O)(Nc1ccc(N2CCCCC2)cc1)c1ccccc1F | 1.7 | 0.02
O=c1nc2n3ccsc3ncc-2s1 | 0.1 | .
CCCCC1C(=O)N(c2ccccc2)N(c2ccc(O)cc2)C1=O (stereo not drawn) | 0.35 | -0.41&1.6
CC1CCN(C(=O)C(Cc2ccccc2)NS(=O)(=O)c2ccc3c(c2)c(=O)n(C)c(=O)n3C)CC1 (stereo not drawn) | -1.1 | 0.36
Cc1cc(C)c(C(=O)CC(N2CCCCC2)C(F)(F)F)c(=O)[nH]1 (stereo not drawn) | 1.2 | -0.86
COCCn1c(=NC(=O)c2cccc(OC)c2)sc2cc(Br)ccc21 | -1 | 1
Cc1cccc(N2C(=O)CN(C(C)C)C(=O)C2c2ccc(F)cc2)c1C (stereo not drawn) | -0.55 | .
CN(C)C(=O)C(OC(=O)c1ccc2ccccc2n1)c1ccccc1 (stereo not drawn) | -0.45 | .
Cc1ccc(-c2nnc(SC(C)C(=O)c3ccccc3)o2)cc1 (stereo not drawn) | 0.85 | .
O=C(Oc1ccc(-c2nccc(-c3ccccn3)n2)cc1)c1cccs1 | . | 0.21
Cc1nc2nc3ccccc3nc2n1-c1ccc(F)cc1 | 0.05 | 9.8
CCOC(=O)c1nc[nH]c1C(=O)OC | -0.05 | .
CCCOC(=O)c1ccc(Nc2nc3ccccc3n3c(C)nnc23)cc1 | -0.3 | 0

Already shown: an excerpt of the list.
SMILES | AID504770 | Ba CapD inh
Cc1cc(C)c(C(=O)CC(N2CCCCC2)C(F)(F)F)c(=O)[nH]1 (stereo not drawn) | 1.2 | -0.86
COCCn1c(=NC(=O)c2cccc(OC)c2)sc2cc(Br)ccc21 | -1 | 1

New compounds follow:
SMILES | AID504770 | Ba CapD inh
OCC1OC(n2cnc3cncnc32)C(O)C1O (stereo not drawn) | -0.3 | -0.05
O=S(=O)(Cc1ccccc1)n1ccnc1 | -1.2 | -0.4
O=c1[nH]c2ccc(S(=O)(=O)NCc3ccco3)cc2[nH]1 | -0.7 | .
CCCCNC(=O)CSc1nc2ccccc2n1S(=O)(=O)c1ccc(Cl)cc1 | . | -0.82
CCCn1c2ccc(Cl)cc2c2nc3ccccc3nc21 | 0.25 | -0.35
Cc1ccc(-n2cnc3ccccc3c2=O)cc1Cl | -0.45 | .
O=C(CSc1n[nH]c(-c2ccncc2)n1)c1ccc(O)c(O)c1 | . | -0.38
O=C(Cn1ncc2ccc(Cl)cc21)N1CCc2ccccc2C1 | -2.2 | 0.17
Cc1noc(C)c1COC(=O)CCc1nc2ccccc2s1 | -0.25 | .
CSc1ccc(-c2nc(N)sc2-c2ccccc2)cc1 | -0.35 | 0.3
CC/C(=N\OC(=O)NS(=O)(=O)c1ccc(C)cc1)c1ccc(-c2ccccc2F)cc1 | . | 0.24
CCOC(=O)C(Cc1ccc(Cl)cc1)NC(=O)OCCc1ccccc1Cl (stereo not drawn) | . | 0.86
COCCN(CCOC)S(=O)(=O)c1ccc(C(=O)Nc2nnc(C34CC5CC(CC(C5)C3)C4)s2)cc1 | . | -0.12
O=C(/C=C/c1ccccc1)Nc1ccc2sccc2c1 | -0.05 | -0.03
O=C(NC1CCCC1)C1CCN(c2nc3ccccc3n3cccc23)CC1 | 1 | -2.1
CCn1c(CNc2cccc(Cl)c2)nnc1SCc1ccccc1 | -0.15 | .
Cc1cc(C)c2cc(C(=O)NCc3ccccc3)[nH]c2c1 | 0.5 | 4.5
Cc1nc(-c2ccc(/C(N)=N/O)cc2)cs1 | -0.55 | 0.02
Clc1ccc(-c2csc(-c3ccncc3)n2)cc1 | . | 3.1
CCOC(=O)c1c(NC(=O)Nc2ccc(Cl)c(Cl)c2)sc(C)c1C | 0.05 | -0.93
Cc1[nH]c2ccccc2c1CC#N | -1.1 | -1.1
c1ccc(Cc2nc3c4cnn(Cc5ccccc5)c4ncn3n2)cc1 | -0.35 | 1.1
C=CCNC(=O)c1ccc2c(c1)[nH]c(=S)n1c3ccccc3nc21 | . | 0.15
CCC1(C(=O)c2ccccc2)C(c2ccc(OC)c(OC)c2)C1(C(=O)OC)C(=O)OC (stereo not drawn) | 0.2 | 0.13
Cc1cc(=O)[nH]c(-n2ncc(C#N)c2N)n1 | 0.85 | .
CCOC(=O)c1cc2nc3sccn3c2s1 | -0.1 | 91
C#CC(C)(C)NC(=O)Nc1ccccc1 | . | 0.72
CC(C)(C)Sc1ccccc1/C=N/NC(=O)c1ccc([N+](=O)[O-])cc1Cl | . | -0.035
O=C1CSC(=S)N1C1CCS(=O)(=O)C1 (stereo not drawn) | -0.7 | .
COc1ccc(C2CC(c3c(-c4ccccc4)c4cc(Cl)ccc4[nH]c3=O)=NN2C(=O)CCCC(=O)O)cc1OC (stereo not drawn) | . | -1.3
COc1cc(CNC(C)(C)C)cc(Cl)c1OCc1cccnc1 | -0.05 | .
FC(F)(F)c1cccc(OCc2cc(-c3ccc(Cl)c(Cl)c3)on2)c1 | . | -0.42
CC(C(=O)Nc1ncccn1)(C(F)(F)F)C(F)(F)F | -0.35 | 0.32
Cc1sc(NC(=O)c2ccco2)c(CN2CCCCC2)c1C | -0.35 | .
CCN(C(=O)c1cccc(C(=O)N(CC)c2ccccc2)c1)c1ccccc1 | -0.8 | -0.12
Cc1cc(C)nc(NC(N)=O)n1 | -0.75 | -0.11
CCCCC(=O)Nc1nc2ccccc2s1 | 0.3 | 0.7
N#Cc1c(-c2cccs2)nc(SCC(=O)c2ccc(Br)cc2)[nH]c1=O | 0.55 | 1.8
COc1cccc(C(=O)N/N=C/c2ccc3c(c2)OCCO3)c1 | . | -0.35
Cc1cc(S(=O)(=O)N2CCCC2)c(C)s1 | 0.9 | 0.53
CCCCn1c(CNC(C)=O)nc2ccccc21 | 0.05 | -0.21
Cc1ccc(Oc2ncccc2[N+](=O)[O-])c([N+](=O)[O-])n1 | . | -1.4
COc1ccc2c(C)c(CC(=O)N3CCCC3)c(=O)oc2c1OC | 0.25 | 31
Cn1c(=O)cc2c3c(cccc31)C(=O)c1ccccc1-2 | -0.45 | .
CN(Cc1ccccc1)C(=O)CN1CCN(S(=O)(=O)c2ccccc2F)CC1 | -0.25 | .
